Rce1 inhib = blocks yeast Ras-converting enzyme. yeast membranes, quenched prenylated peptide cleavage fluorescence. calls only. hit rate 0.27% among 290,000;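 active = fall in fluorescence gain of 50% or more versus controls, with final raw signal at or below 3038400; inconclusive = same 50% fall but final raw signal above 3038400; inactive = fall in fluorescence gain under 50%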;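 note: plate controls were neutral control wells for no effect and wells lacking membranes for full effect; tested at 10 µM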
Target sequence (Q03530 whole entry, looked up): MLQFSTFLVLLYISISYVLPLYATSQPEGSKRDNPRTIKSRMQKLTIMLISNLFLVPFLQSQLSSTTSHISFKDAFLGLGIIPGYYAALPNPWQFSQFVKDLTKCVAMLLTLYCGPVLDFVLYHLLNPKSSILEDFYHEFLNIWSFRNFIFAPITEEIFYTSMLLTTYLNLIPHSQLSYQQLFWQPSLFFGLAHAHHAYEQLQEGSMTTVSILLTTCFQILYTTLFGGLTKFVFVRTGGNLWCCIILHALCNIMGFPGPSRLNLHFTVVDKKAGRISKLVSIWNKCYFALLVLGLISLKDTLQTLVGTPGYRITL
MT1-MMP act inh = blocks activation of human MT1-MMP. P50281. HT1080 RFP-PRO-GFP cells, GFP/RFP ratio fluorescence, overnight; percent of plate control window, DMSO zero. GFP/RFP ratio change, % at 20 µM. hit rate 0.061% among 360,000. AID 651647;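 active = GFP/RFP ratio change of at least 30% with cell ATP level not reduced by more than half and red fluorescence within 50% of control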; note: strong numbers were not always called active
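Material: RFP-PRO-GFP reporter HT1080 cells. Dosing: single-point 20 µM compound, 1% DMSO. Controls: DMSO and RFP-L50D-GFP cell wells. Timing: cells overnight before dosing, compound overnight, 37 °C, 5% CO2. Measure: GFP/RFP fluorescence ratio.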
HIV Env fusion = HIV envelope-mediated fusion inhibition; HeLa-JRFL Env/CEM21 cell fusion, luciferase; inhibition, % at 12.3 µM; hit rate 1.1% among 360,000;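 active = mean replicate inhibition score of at least 50 and every replicate individually at or above 50; inconclusive = only one of the two criteria met; inactive = mean below 50 and not all replicates reaching 50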;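 note: 0% = plate neutral controls and 100% = maraviroc near 300 nM; one replicate is shown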
PABP polyA inh = blocks human PABP binding to poly(A) RNA; P11940; fluorescence polarization; inhibition, % at 35 µM; hit rate 1% among 290,000;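 active = 50% or more with normal probe brightness, or confirmed in later tests; inconclusive = above 50% with abnormal brightness, or retests that disagree; inactive = below 50% or failed in later tests; about a fifth of its hits are not listed in these tables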;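 note: calls also rest on retests at 20 µM and on dose response follow-up; controls were probe without protein and protein plus probe with vehicle; some compounds called inactive have numbers as strong as hits; many hits fall short of the cut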
UUG fidelity = yeast start codon fidelity modulation | hit rate 0.13% among 350,000 | activity score, % at 18.7 µM | S. cerevisiae UUG-firefly luciferase reporter, luminescence/redox ratio;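 active = replicate mean at a twofold rise or more, about +100% in these data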;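 note: firefly luciferase made from a UUG start codon reports start codon fidelity; reporter light over untreated wells divided by growth signal over untreated wells; some hits fall short of that in this replicate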
CSC inhib = blocks cancer stem cells; cancer stem cell-like cells viability, luminescence; inhibition, % at 7.5 µM; hit rate 1.1% among 300,000; AID 2717;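 active = mean at 75% or more and at least half the replicates too; inconclusive = mean and replicates disagree; tested in HMLE shEcad cells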;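 note: 0% = median of negative and 100% = median of positive control wells; the first replicate is given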
eIF4H inh = inhibitors of RNA binding by human eIF4H; Q15056; eIF4H fluorescence polarization binding assay; inhibition, % at 35 µM; hit rate 0.94% among 290,000; AID 2012;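 active = 50% or more with normal probe brightness, or confirmed in later tests; inconclusive = above 50% with abnormal brightness, or retests that disagree; inactive = below 50% or failed in later tests; about a fifth of its hits are not listed in these tables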;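 note: calls also rest on retests at 20 µM and on dose response follow-up; 0% = protein and probe with vehicle and 100% = probe without protein; strong numbers were not always called active; many hits fall short of the cut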
eIF4H inh retest = second read-out of eIF4H inh, no call of its own (marks repeat the call); inhibition, %; compound at 20 µM; confirmation average;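 mean of two retest wells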
PABP polyA inh retest = second read-out of PABP polyA inh, no call of its own (marks repeat the call); inhibition, %; compound at 20 µM; confirmation repeats;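 mean of two retest wells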
MT1-MMP act inh RFP = recorded beside MT1-MMP act inh, whose call it bears; RFP signal change, %; measured here: RFP expression control read;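 0 = vehicle wells; hits needed this value within 50% of zero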
* marks the source's active call; other numbers are inactive results; i = inactive; ? = inconclusive; . = no result given. The list is partial. The share of hits here may be higher or lower than overall.

SMILES | Rce1 inhib | MT1-MMP act inh | MT1-MMP act inh RFP | HIV Env fusion | PABP polyA inh | UUG fidelity | CSC inhib | eIF4H inh | others
O=C(CCCN1C(=O)c2cccc3cccc(c23)C1=O)NCc1cccnc1 | i | -4 | 1 | -12 | 4 | -11 | 4 | -6
CCc1nonc1NC(=O)c1oc2ccccc2c1C | i | 2 | 1 | -25 | . | -10 | 8 | .
COc1ccc(NC(=O)CSc2nnc(NC(=O)c3ccco3)s2)cc1OC | i | -6 | -1 | -2 | 19 | 3 | -14 | 0
Cc1ccc(NC(=O)CN2CCc3cc4c(cc3C2C)OCCCO4)cc1 (stereo not drawn) | i | 0 | -6 | -11 | -7 | -16 | 1 | -4
CCSC1=C(C#N)C(c2ccccc2Cl)CC(=O)N1 (stereo not drawn) | i | 4 | 0 | . | 6 | -8 | 2 | -4
Cn1c(=O)[nH]c(=O)c2c1nc(N)n2Cc1ccccc1 | i | 4 | 6 | 5 | -8 | -14 | 1 | -9
CCn1nc(C)c(/C=N\NC(=O)c2ccc3c(c2)OCO3)c1C | i | -12 | 5 | 10 | -4 | -23 | . | 5
CCc1ccc(Nc2cnn(-c3nc4ccccc4s3)c(=O)c2Cl)cc1 | i | 2 | -9 | -15 | 22 | . | 7 | -3
Nc1cccnc1Sc1ccc(Cl)cc1 | i | 5 | 4 | ? | 5 | -19 | 1 | -3
COc1cc(NC(=O)CSc2ncnc3sc4c(c23)CCC(C)C4)c(C(=O)O)cc1OC (stereo not drawn) | i | 2 | 5 | 14 | 18 | -12 | 1 | -8
Cn1cnc2nc[nH]c2c1=S | . | -3 | -1 | 0 | . | -20 | . | .
Cc1occc1C(=O)N1CCN(S(C)(=O)=O)CC1 | i | -3 | 3 | -44 | 0 | -4 | . | 6
COc1ccc(-n2c(C)nc(N)c2C(=O)c2ccccc2)cc1 | i | 0 | -2 | 14 | 9 | . | 2 | -5
Nn1cnnc1SCC(=O)Nc1ccc2c(c1)OCO2 | i | 2 | 5 | . | 7 | . | -4 | -10
CN1C2CCC1/C(=C\c1ccccc1Cl)C(=O)/C2=C\c1ccccc1Cl | i | . | . | . | 1 | . | . | -16
COC(=O)[C@@H]1C[C@H]2CC[C@H](O)C[C@H]2N1Cc1ccc(C)s1 | i | 3 | 7 | -4 | -3 | -12 | -6 | -5
CCOC(=O)c1c(N)sc2c(NC(C)=O)cccc12 | i | 0 | 1 | . | -5 | -13 | 16 | -2
Cc1cc(=O)[nH]c(N/N=C/c2ccc(OC(=O)c3cccnc3)cc2)n1 | i | -5 | -8 | 7 | -10 | . | -14 | -6
Cc1ccccc1OCC(=O)NC(=S)Nc1cccc2cc(O)ccc12 | i | 0 | 0 | -38 | 0 | -20 | 7 | -3
CC(=O)N1CC(C)c2scc(C)[n+]2-c2ccccc21 (stereo not drawn) | i | 0 | -1 | 8 | 9 | . | -14 | -4
CC(=O)Nc1cccc(/C(C)=N/NC(=O)c2cccc(S(=O)(=O)N3CCCC3)c2)c1 | . | 5 | 6 | -15 | . | 2 | . | .
CN(C)S(=O)(=O)c1cccc(C(=O)Nc2ccccc2N2CCCCC2)c1 | i | -1 | -6 | 29 | 1 | -8 | 24 | 1
Cc1c(Cl)c([N+](=O)[O-])nn1CCCC(=O)NC(C)c1ccccc1 (stereo not drawn) | i | 3 | 6 | -163 | -13 | 1 | -1 | -4
CCOC(=O)CSc1ncc(OC)c(Sc2ccc(OC)cc2)n1 | i | -1 | 3 | 13 | -5 | -5 | 5 | -10
CC(=O)Nc1cc(NC(C)=O)cc(-c2nc3ccccc3[nH]2)c1 | i | 3 | 3 | -8 | 5 | -20 | -10 | 3
O=C(NNC(=O)C1CCN(Cc2ccccc2)CC1)c1cccc(Cl)c1 | i | -2 | 2 | . | -1 | . | . | 1
O=C(N/N=C/c1cc2cc3c(cc2nc1Cl)OCCO3)c1ccccc1O | i | 0 | -3 | . | 2 | . | -18 | 2
CC(=O)C1=C(C)NC(SCC(=O)c2cc(Cl)ccc2Cl)=C(C#N)C1c1ccco1 (stereo not drawn) | i | -29 | -1 | . | 20 | . | . | 0
CC(NC(=O)CSc1ncccn1)c1ccc(Cl)cc1Cl (stereo not drawn) | . | -2 | 2 | 2 | 6 | -4 | 11 | -7
Nc1nc2ccccc2n1CCOc1ccc(F)cc1 | i | 1 | -5 | 16 | -6 | -15 | -6 | -7
O=S(=O)(Nc1nccs1)c1cc(Cl)ccc1Cl | i | -9 | 7 | . | 20 | -14 | -6 | 13
c1ccc2c(c1)COc1c3cc4c(cc3nn1-2)OCO4 | . | 7 | -4 | -335 | . | -19 | . | .
CC(C)OC(=O)Cn1c(-c2ccccc2)c(-c2ccccc2)nnc1=O | i | -4 | -1 | -44 | -6 | -6 | -4 | -3
Cc1ccc(-c2nnn(CC(=O)N(CCO)C(C(=O)NC3CCCC3)c3ccc(F)cc3)n2)o1 (stereo not drawn) | i | . | . | 26 | 10 | . | -12 | 1
COC(=O)c1ccc(NC(=S)N2CCN(Cc3cccc(C)c3)CC2)cc1 | i | -3 | -3 | -20 | -1 | -19 | -16 | 8
O=C(COC(=O)C1CCC1)NC(=O)c1ccccc1 | i | -1 | 2 | 26 | . | -8 | -6 | .
Cc1ccccc1OCCSc1nc2ccccc2n1CCC(=O)O | i | 2 | 3 | 4 | 14 | 4 | -3 | 8
Cc1ccnc(NC(=O)c2ccc3c(c2)OCO3)c1 | i | 2 | 1 | -26 | -5 | -66 | 27 | 7
COc1ccc(CCNc2c(C)c(C)nc3ncnn23)cc1 | i | -1 | -20 | . | 8 | -17 | . | -9
C=CCn1c(SCC(=O)Nc2ccc(OC)cc2)nc2ccccc2c1=O | . | 1 | -2 | -1 | -6 | -22 | -7 | 1
Cc1cc(O)c(C=Nc2ccc(N3CCOCC3)cc2)c(C)c1Cl | i | 5 | 10 | -1 | 91* | 8 | 4 | 58 | eIF4H inh retest=-11;PABP polyA inh retest=55*
O=c1c(O[C@@H]2O[C@H](CO)[C@@H](O)[C@H](O)[C@H]2O)c(-c2ccc(O)cc2)oc2cc(O)cc(O)c12 | . | 1 | 0 | . | . | -6 | -9 | .
CC(c1ccccc1)n1c(NCCCn2ccnc2)nc2c1c(=O)[nH]c(=O)n2C (stereo not drawn) | . | . | . | -25 | 3 | . | . | 1
CN1/C(=C\C=[N+](C)c2ccccc2)C(C)(C)c2ccccc21 | i | 2 | -9 | . | 8 | -13 | 30 | 0
O=C(N/N=C/c1ccccn1)c1ccncc1 | i | -2 | 3 | -5 | -7 | -16 | 3 | 11
COc1ccc(S(=O)(=O)N2CCC(C(=O)N[C@@H](C)C(=O)NCc3cccc(OC)c3)CC2)cc1 | i | 3 | -1 | 4 | 6 | -12 | 14 | -8
Nc1cc(=O)nc(SCC(=O)N2CCN(c3ccccc3)CC2)n1-c1ccccc1 | i | -3 | -2 | 2 | 15 | 1 | -4 | -4
CC(C)CCN1CC(O)=C(c2nc(-c3ccc(Cl)cc3)cs2)C1=N | i | 2 | 2 | . | 7 | -7 | -17 | 4
COc1cc(CN2CCN(Cc3ccc([N+](=O)[O-])cc3)CC2)c([N+](=O)[O-])cc1OC | i | 0 | -15 | 19 | -7 | . | 3 | -2
COC(=O)c1cccc(N(C(=O)CNC(=O)c2cccs2)C(C(=O)NCC2CCCO2)c2ccc(OC)c(OC)c2)c1 (stereo not drawn) | i | 2 | 8 | -4 | 1 | -5 | . | 8

The listing continues.
SMILES | Rce1 inhib | MT1-MMP act inh | MT1-MMP act inh RFP | HIV Env fusion | PABP polyA inh | UUG fidelity | CSC inhib | eIF4H inh | others
Cc1ccc(S(=O)(=O)N2CCOCC2)cc1C(=O)N1CCCC1 | i | 2 | 2 | -11 | 4 | -26 | -13 | -3
Cc1cccc(C)c1NC(=O)C1(C)CCC(=O)N1CCOc1ccccc1 (stereo not drawn) | . | -1 | 0 | 0 | . | -13 | . | .
COC(=O)c1ccc(Cn2nc(C)cc2C)cc1 | i | 5 | 5 | -100 | -8 | -8 | -9 | -1
COc1cc2c(cc1OC)CN(C(=O)Cc1ccccc1)CC2 | i | -2 | 4 | -3 | -5 | -16 | -3 | 6
Cc1c(C(=O)N(Cc2ccc(Cl)cc2)C2CCS(=O)(=O)C2)oc2ccccc12 (stereo not drawn) | i | -6 | -6 | 10 | -10 | 2 | -16 | -14
Nc1nnnn1/N=C/c1cc(Cl)cc(Cl)c1OCc1ccc(Cl)cc1Cl | i | 0 | 1 | . | 4 | . | -1 | 9
O=c1c2ccc(Cl)cc2nc(-c2ccc([N+](=O)[O-])cc2)n1O | i | -3 | 2 | -2 | 1 | 11 | 31 | 7
CCCCNCCOCCOc1ccc(Cl)cc1Br | i | 4 | 1 | -14 | -13 | 0 | 31 | 4
COc1ccccc1NC(=S)NC1CCCCCC1 | i | 1 | -3 | . | 6 | -29 | 7 | 5
CCOC(=O)c1c(NC(=O)CSc2nncn2C)sc(C)c1C | i | 1 | -1 | 5 | 2 | -6 | -14 | 0
CCc1ccc(NC(=O)c2cc(-c3ccc4c(c3)OCO4)on2)cc1 | i | 0 | -2 | -4 | 7 | -24 | 29 | 2
COc1cccc(NC(=O)Nc2cc(Cl)ccc2C)c1 | . | 3 | -5 | 14 | 2 | . | 2 | -4
CC(C)(C)c1ccc(C(=O)NCCCNC(=O)c2ccco2)cc1 | i | 0 | -4 | 16 | -1 | -4 | . | -5
Cc1ccc(C(=O)N(Nc2nc3ccccc3s2)C(=O)c2ccc(C)cc2)cc1 | i | 0 | 3 | . | -1 | -4 | -7 | -1

Structural class: those above with an aryl thioether with sulfur outside any ring (10)
SMILES | Rce1 inhib | MT1-MMP act inh | MT1-MMP act inh RFP | HIV Env fusion | PABP polyA inh | UUG fidelity | CSC inhib | eIF4H inh | others
COc1ccc(NC(=O)CSc2nnc(NC(=O)c3ccco3)s2)cc1OC | i | -6 | -1 | -2 | 19 | 3 | -14 | 0
Nc1cccnc1Sc1ccc(Cl)cc1 | i | 5 | 4 | ? | 5 | -19 | 1 | -3
COc1cc(NC(=O)CSc2ncnc3sc4c(c23)CCC(C)C4)c(C(=O)O)cc1OC (stereo not drawn) | i | 2 | 5 | 14 | 18 | -12 | 1 | -8
Nn1cnnc1SCC(=O)Nc1ccc2c(c1)OCO2 | i | 2 | 5 | . | 7 | . | -4 | -10
CCOC(=O)CSc1ncc(OC)c(Sc2ccc(OC)cc2)n1 | i | -1 | 3 | 13 | -5 | -5 | 5 | -10
CC(NC(=O)CSc1ncccn1)c1ccc(Cl)cc1Cl (stereo not drawn) | . | -2 | 2 | 2 | 6 | -4 | 11 | -7
Cc1ccccc1OCCSc1nc2ccccc2n1CCC(=O)O | i | 2 | 3 | 4 | 14 | 4 | -3 | 8
C=CCn1c(SCC(=O)Nc2ccc(OC)cc2)nc2ccccc2c1=O | . | 1 | -2 | -1 | -6 | -22 | -7 | 1
Nc1cc(=O)nc(SCC(=O)N2CCN(c3ccccc3)CC2)n1-c1ccccc1 | i | -3 | -2 | 2 | 15 | 1 | -4 | -4
CCOC(=O)c1c(NC(=O)CSc2nncn2C)sc(C)c1C | i | 1 | -1 | 5 | 2 | -6 | -14 | 0

Compound activity from PubChem.
